Screening data: PubChem, National Center for Advancing Translational Sciences (NCATS)
VDR inh: inhibitors of human vitamin D receptor | P11473 | VDR-SRC2-3 peptide fluorescence polarization, 2 h | Potency, µM, for inactives: max response, negative = inhibition, usual class: inhibitors | hit rate 0.93% among 400,000; active = well fitted inhibition curve with a large enough effect; inconclusive = small, poorly fitted or top-dose-only effect, or another doubt; inactive = no such curve, though single readings can be large or run the other way; also: series mostly up to about 120 µM
Target sequence (P11473 whole entry, looked up): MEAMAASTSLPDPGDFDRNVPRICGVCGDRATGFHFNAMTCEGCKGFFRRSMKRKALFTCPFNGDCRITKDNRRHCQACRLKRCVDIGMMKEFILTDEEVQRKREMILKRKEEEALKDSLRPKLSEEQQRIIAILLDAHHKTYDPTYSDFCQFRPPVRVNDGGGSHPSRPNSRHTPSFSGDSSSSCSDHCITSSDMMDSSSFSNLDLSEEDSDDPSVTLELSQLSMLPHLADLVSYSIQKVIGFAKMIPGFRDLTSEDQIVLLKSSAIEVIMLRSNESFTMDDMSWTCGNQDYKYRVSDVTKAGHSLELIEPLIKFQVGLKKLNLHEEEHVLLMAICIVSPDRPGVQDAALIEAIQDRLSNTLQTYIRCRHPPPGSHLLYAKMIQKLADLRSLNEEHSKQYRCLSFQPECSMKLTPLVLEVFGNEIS
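Two reagent solutions held at 4 deg C in the dark were dispensed, compounds pinned at 23 nl, and the mixture incubated 2 h at room temperature. Read-out: fluorescence polarization of VDR–SRC2-3 peptide binding.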
Numbers without * were called inactive; ? = inconclusive. % is scaled to controls: 0 for no effect and ±100 for the full control effect; potency is read from the fitted curve at half-maximal effect.

structure	VDR inh
N=c1c(C(=O)NC2CCCC2)cc2c(=O)n3ccccc3nc2n1CCN1CCOCC1	10%
CCCCCC(NC(=O)C1CCN(C(=O)[C@@H](NS(=O)(=O)c2ccc(C)cc2)C(C)C)CC1)C(=O)O (some centres undefined)	-1%
O=c1c2cnn(-c3ccccc3)c2nc(-c2cccs2)n1-c1ccc(Br)cc1	6%
O=C(c1ccc(Cl)c([N+](=O)[O-])c1)N1CCCc2ccccc21	3%
CSc1ccccc1NC(=O)c1ccc(Cl)s1	12%
CN(CC(=O)Nc1ccc(F)cc1)C(=O)COc1ccccc1Cc1ccccc1	-9%
CN1/C(=C\C(=O)COC(=O)CNC(=O)c2ccc3ccccc3c2)C(C)(C)c2ccccc21	-28%
COc1ccc(NC(=O)CCC(=O)N2CCCC2)c([N+](=O)[O-])c1	4%
COc1ccc(NC(=O)Nc2ccc3c(c2)N(C)C(=O)CS3)cc1OC	?
CC(=O)Nc1nnc(SCc2cccc(F)c2)s1	-1%
CC(C)NC(=O)COC(=O)C1CSC2(c3ccc(Br)cc3)CCC(=O)N12 (centres undefined)	-6%
Cc1cnc(C(=O)OCC(=O)Nc2oc(-c3ccccc3)c(-c3ccccc3)c2C#N)cn1	14%
CCOc1ccc(NS(=O)(=O)c2c(C)nc3sccn3c2=O)cc1	0%
CCN(CC)C(=O)CSc1nnc2[nH]c(=O)cc(C)n12	-2%
COc1ccc(/C=C2\CC/C(=C\c3ccc(OC)cc3OC)C2=O)c(OC)c1	-19%
Cc1onc(-c2ccccc2Cl)c1C(=O)Nc1nnc(C(C)C)s1	-7%
CCOc1ccc(NC(=O)c2c(NC(=O)c3cccc(C)c3)sc3c2CCC3)cc1	11%
O=C(CSc1ccc(-c2ccccc2)nn1)N1CCOCC1	8%
CC(=O)[C@H]1CC[C@H]2[C@@H]3CC=C4C[C@@H](O)CC[C@]4(C)[C@H]3CC[C@]12C	-2%
Cc1ccc(CNC(=O)CCS(=O)(=O)c2ccc(C)cc2)cc1	-10%
S=C1Nc2cc(Cl)ccc2Sc2ccccc21	-11%
COCCN(C(=S)Nc1ccccc1C)C(C)c1cccs1 (centres undefined)	-7%
CC(CCc1ccccc1)NC(=O)C(=O)c1c[nH]c2ccccc12 (centres undefined)	-8%
O=C(COC(=O)CNC(=O)c1ccc2c(c1)OCO2)Nc1ncc(Cl)cc1Cl	3%
Cc1c(Cl)cnc(NC(=O)COC(=O)c2nn(C)c(=O)c3ccccc23)c1Cl	-11%
O=c1cc(-c2ccccc2)c2ccc(O)c(CN3CCCCC3)c2o1	17%
CCOC(=O)c1ccc(NC(=O)c2cccc(S(=O)(=O)N3c4ccccc4CC3C)c2)s1 (centres undefined)	-13%
CC(Sc1nnc2c(n1)[nH]c1ccccc12)C(=O)N(C)C1CCCCC1 (centres undefined)	4%
CC(CNC(=O)CCCn1ncn2c(cc3occc32)c1=O)c1ccccc1 (centres undefined)	19%
COCCN1CCN(C(=O)C2CCC(=O)N(CCc3ccc(Cl)cc3)C2)CC1 (centres undefined)	0%

structure	VDR inh
Cc1ccc(-c2cc(C(=O)OCC(=O)c3ccccc3)c3cccc(Cl)c3n2)cc1	-3%
Cc1cc(CNC(=O)Cn2cc([N+](=O)[O-])cn2)c2ccccc2n1	5%
O=C(c1ccc(Cl)cc1)c1c[nH]c(C(=O)NNc2ccccc2)c1	14%
Cc1cc(C)c(C)c(S(=O)(=O)N2CCC(C(=O)NCC(c3ccccc3)N(C)C)CC2)c1C (centres undefined)	-5%
O=C(NCc1ccco1)c1ccc(S(=O)(=O)N2CCCCC2)cc1	-3%
CC1(C)Oc2ccc(C(=O)N3CCOCC3)cc2N(CC(=O)N2CCOCC2)C1=O	4%
Cc1c(Br)c([N+](=O)[O-])nn1CC(=O)NCc1cccnc1	16%
O=C(NCCO)c1cccc(S(=O)(=O)N2CCCCC2)c1	7%
CC(C)(C)c1nc2ccccc2c(=O)n1N1C(=O)c2ccccc2C1=O	18%
CCNC(=S)NNC(=O)c1ccoc1C	-20%
CCOC(=O)C1CCN(C(=O)CS(=O)Cc2nc(-c3ccc(C)cc3)oc2C)CC1 (centres undefined)	?
CCC(=O)N1CCc2cc(S(=O)(=O)NC(Cc3ccccc3)C(=O)Nc3ccc(Cl)cc3)ccc21 (centres undefined)	0%
CCOc1ccc(CNC(=O)C2CCCN(S(=O)(=O)c3ccc4c(ccn4C)c3)C2)cc1 (centres undefined)	0%
CCCN1C(=O)/C(=C/c2c(NCCCOCC)nc3c(C)cccn3c2=O)SC1=S	-10%
O=C(N1CCOCC1)N(CCN1CCOCC1)Cc1cccc(Cl)c1	15%
Cc1cccc(Nc2ncnc3nc[nH]c23)c1C	-11%
Cc1ccc(C(=O)N/C(=C/c2ccc(-c3cccc([N+](=O)[O-])c3)o2)C(=O)NC(C)C)cc1	-25%
O=C(Cc1cccs1)Nc1cccc(-c2nc3cc4ccccc4cc3[nH]2)c1	-23%
CCn1c(SCC(=O)N2c3ccccc3Sc3ccccc32)nc2c1c(=O)n(C)c(=O)n2C	6%
COc1ccc(CNC(=S)Nc2cccc(Cl)c2)cc1	-16%
CC(=O)c1ccc(NC(=O)C2CCCN(c3ncnc4c3nc3n4CCCCC3)C2)cc1 (centres undefined)	-15%
O=C(Cn1cnc2nc3c(cc2c1=O)CCCC3)N1CCN(c2cccc(C(F)(F)F)c2)CC1	5%
Cc1nc2ccccc2n1CCc1ccccc1	1%
CCCn1nc(C(=O)NCc2ccccn2)c2ccccc2c1=O	-10%
Cc1cccc(NC(=O)CSC2=Nc3ccccc3C3=NC(CC(=O)NCc4cccs4)C(=O)N23)c1 (centres undefined)	1%
COc1ccc(NC(=O)COC(=O)c2ccc(Cl)c(S(N)(=O)=O)c2)c([N+](=O)[O-])c1	-17%
Clc1ccc2[nH]c3c(N4CCC5(CC4)OCCO5)ncnc3c2c1	-13%
O=C(c1ccc(-c2ccccc2)cc1)N1CCN(c2nc3ccccc3o2)CC1	-4%
O=C(NCCc1cccs1)c1cccs1	-1%
C[n+]1cnc(-c2ccccc2)cc1-c1ccccc1	1%

structure	VDR inh
C=CCCn1c(Cl)c(C#N)sc1=O	?
COc1cc2c(cc1OC)n(CC(=O)Nc1ccccc1)c(=O)n1nc(-c3ccccc3)nc21	-2%
CCCS(=O)(=O)N1CCCC(C(=O)NCCOC)C1 (centres undefined)	8%
COC(=O)c1ccccc1OCCCOc1ccc(C=O)cc1OC	-8%
CCOC(=O)CC1(NC(=O)c2cc(COc3cncc(Cl)c3)on2)CCCCC1	11%
COc1ccc(OC)c(C2C(C#N)=C(N)Oc3cc(C)n(Cc4ccccn4)c(=O)c32)c1 (centres undefined)	-10%
O=C(CCn1c(=O)c2sccc2n(Cc2ccc(F)cc2)c1=O)NCc1ccc2c(c1)OCO2	-14%
Cc1cc(-c2ccccc2)nc2[n+]1CCN2C	-3%
O=C(Nc1nccs1)C1CC=CC2CCN(Cc3ccc(Cl)c(Cl)c3)C(=O)C21 (centres undefined)	-20%
Cc1ccc(S(=O)(=O)CCC(=O)OCn2nnc3ccccc3c2=O)cc1	-14%
CC1=NN(c2ccccc2)C(=O)/C1=C\c1ccc(Br)s1	-25%
CCOc1ccc(NC(=O)CSc2nc(=O)n(CCN3CCOCC3)c3c2CCCC3)cc1	-11%
COc1ccc(-c2nnc(NC(=O)CS(=O)(=O)c3ccc(Cl)cc3)o2)c(OC)c1	-14%
COc1ccc2nc(SCC(=O)N3CC(=O)Nc4ccccc43)c(C#N)cc2c1	-5%
CCN(CC)C(=O)CSc1nc2ccccc2c(=O)n1OC	-2%
COCCn1c(SCC(=O)Nc2ccc(F)cc2)nc2c(oc3ccccc32)c1=O	20%
O=C1NC(=O)/C(=C/c2ccccn2)S1	-15%
CN1CCN(C(=S)SCc2nc(N)nc(Nc3ccc(F)cc3)n2)CC1	-15%
Cc1cccnc1N1C(=O)c2ccc(C(=O)O)cc2C1=O	-8%
COc1ccccc1C1CCN(Cc2cccc([N+](=O)[O-])c2)CC1	-7%
O=C(CSc1nc2ccccc2o1)Nc1ccc(N2CCOCC2)cc1	-4%
COCc1ccc(CN2CCCC(CO)(Cc3ccccc3C)C2)o1 (centres undefined)	4%
O=[N+]([O-])c1ccc(COc2cccc(CN3CCOCC3)c2)cc1	-4%
CC1CCC(C(C)C)C(OCC(O)CN2CCCC(C)C2)C1 (centres undefined)	-9%
CCCCN(C)C(=O)Cn1ncc2c3ccccc3n(CCC)c2c1=O	?
CCOc1ccc(NC(=O)N(C2CCCCC2)C(C)c2cccnc2)cc1 (centres undefined)	-12%
COc1cc(-c2nc3nc(C)cc(C)n3c2Nc2ccc(Cl)cc2)ccc1O	-7%
Cc1cc(NC(=O)CCc2ccc(S(=O)(=O)N3CCOCC3)cc2)n(-c2ccccc2)n1	12%
Cc1cc(-c2ccc(S(=O)(=O)N(C)c3ccc(C)c(C)c3)s2)on1	8%
O=[N+]([O-])c1cccc(-c2nc3ccc([N+](=O)[O-])cc3[nH]2)c1	32µM*

Shown with each value named: part of the list above
Cc1cc(-c2ccc(S(=O)(=O)N(C)c3ccc(C)c(C)c3)s2)on1
  VDR inh = 8%

Cc1cc(NC(=O)CCc2ccc(S(=O)(=O)N3CCOCC3)cc2)n(-c2ccccc2)n1
  VDR inh = 12%

Next structures follow.
SMILES,VDR inh
COc1cccc(OCCCOc2ccc([N+](=O)[O-])cc2Cl)c1,6%
O=C(CN1CCN(Cc2ccccc2Cl)C1=O)NCC1CCCO1 (centres undefined),-9%
COc1ccc(-c2cc(C(F)(F)F)n3nc(C(=O)Nc4cccc(C(F)(F)F)c4)c(Br)c3n2)cc1,0%
Cc1c(CCC(=O)O)c(=O)oc2cc3occ(C(C)(C)C)c3cc12,24%
COC(=O)c1cc(NC(=O)c2cccc(F)c2)cc(C(=O)OC)c1,-16%
COc1ccc2c(c1)c(CC(=O)OC(C)C(=O)N(C)C)c(C)n2C(=O)c1ccc(Cl)cc1 (centres undefined),6%
CCCN1C(=O)CC(c2ccco2)Sc2ccccc21 (centres undefined),-3%
COc1cc(OC)c2c(OC)cccc2n1,-6%
O=C(Nc1ncc(Cl)cn1)c1cccs1,-2%
O=c1cc(N2CCOCC2)oc2c1ccc1ccccc12,11%

SMILES,VDR inh
COc1ccc(NC(=O)CN(C)C(=O)C2CC(=O)N(CCc3ccc(OC)c(OC)c3)C2)cc1 (centres undefined),26%
Cc1ccccc1C(=O)N[C@H](C(=O)OCC(=O)c1ccc[nH]1)C(C)C,0%
O=C(O)C1CC=CCC1C(=O)NCCc1csc(-c2ccccc2)n1 (centres undefined),-4%
Cc1cccc(C(=O)NCC(=O)OCC(=O)NC2CCCCC2)c1,0%
Cc1cc([N+](=O)[O-])nn1Cc1c(F)c(F)c(F)c(F)c1F,15%
CCOc1cccc(-c2c(C(=O)N/N=C/c3ccc(C)s3)nnn2-c2nonc2N)c1,-6%
COCCNC(=O)CSc1ccc(-c2nc3ccccc3[nH]2)cn1,18%
O=C(CN1CCCC1c1cccs1)Nc1cccc(S(=O)(=O)N2CCCC2)c1 (centres undefined),4%
CC(=O)NC(CCS(C)(=O)=O)C(=O)Nc1ccccc1Cl (centres undefined),11%
Nn1c(SCC(=O)Nc2ccccc2F)nc2ccccc2c1=O,-8%

Three of the entries above in order of their number in VDR inh, highest first:
SMILES,VDR inh
COc1ccc(NC(=O)CN(C)C(=O)C2CC(=O)N(CCc3ccc(OC)c(OC)c3)C2)cc1 (centres undefined),26%
CC(=O)NC(CCS(C)(=O)=O)C(=O)Nc1ccccc1Cl (centres undefined),11%
O=C(CN1CCCC1c1cccs1)Nc1cccc(S(=O)(=O)N2CCCC2)c1 (centres undefined),4%

Following part.
SMILES,VDR inh
COc1ccc(C(CNC(=O)c2cc(=O)[nH]c3ccccc23)N2CCCC2)cc1 (centres undefined),9%
CCOC(=O)C1=C(C)N(CCO)C(=O)NC1c1cccc(O)c1 (centres undefined),18%
Cc1cc(N2CCN(c3ccccc3)CC2)n2ncnc2n1,-2%
O=C(N/N=C/c1ccccc1[N+](=O)[O-])c1cccs1,-1%
C=CCN1c2ccccc2[C@]23C[C@@H](C(=O)OC)N(C(=O)c4ccco4)C2=NC(C(=O)OC)=C(C(=O)OC)[C@H]13,-5%
CCOC(=O)N1CCN(C(=O)C(CC)c2ccccc2)CC1 (centres undefined),-6%
Brc1ccc(OCc2nnnn2-c2ccccc2)cc1,-21%
COc1ccc(OC)c(NC(=O)CN2CCc3ccccc3C2)c1,-4%
O=C(Cn1nc2sc3ccccc3n2c(=O)c1=O)c1cccs1,-14%
Cc1ccc(-c2nc(CS(=O)(=O)CC(=O)Nc3cc(F)ccc3F)c(C)o2)cc1,6%

Individual results from above:
Cc1ccc(-c2nc(CS(=O)(=O)CC(=O)Nc3cc(F)ccc3F)c(C)o2)cc1 – VDR inh = 6%
COc1cc(OC)c2c(OC)cccc2n1 – VDR inh = -6%
O=C(c1ccc(Cl)cc1)c1c[nH]c(C(=O)NNc2ccccc2)c1 – VDR inh = 14%
COCc1ccc(CN2CCCC(CO)(Cc3ccccc3C)C2)o1 (centres undefined) – VDR inh = 4%
CCOc1cccc(-c2c(C(=O)N/N=C/c3ccc(C)s3)nnn2-c2nonc2N)c1 – VDR inh = -6%
O=C(N1CCOCC1)N(CCN1CCOCC1)Cc1cccc(Cl)c1 – VDR inh = 15%
CC1=NN(c2ccccc2)C(=O)/C1=C\c1ccc(Br)s1 – VDR inh = -25%

Further records
SMILES,VDR inh
CCOC(=O)/C(=C/C1=CC(=C/N(C)C)/C(=O)O1)C(C)=O,4%
CCCCNC(=O)Cc1coc2ccc3ccccc3c12,-1%
CCn1c(NC(=O)/C=C/c2ccc(F)cc2)nc2ccccc21,-5%
O=c1nc2n(c3cccc(Cl)c13)CCCCC2,1%
C=CCn1c(Sc2nc(C)cs2)nc2c1c(=O)[nH]c(=O)n2C,14%
COc1ccc(N(CC(=O)Nc2ccc(C)cn2)S(=O)(=O)c2c(C)nn(C)c2C)cc1,-17%

As a working copy, some entries already given:
SMILES,VDR inh
CCOC(=O)/C(=C/C1=CC(=C/N(C)C)/C(=O)O1)C(C)=O,4%
CCCCNC(=O)Cc1coc2ccc3ccccc3c12,-1%

This is a subset; count on the stated rates, not on these rows.
